# High-throughput results: PubChem BioAssay, several laboratories
# eIF4H inh: human eIF4H binding inhibitors, primary screen, translation initiation inhibitor project, biochemical, uHTS, fluorescence polarization. AID 2012, 2009. Eukaryotic translation initiation factor 4H (Homo sapiens), Q15056. eIF4H fluorescence polarization binding assay. inhibition, % at 35 µM. 290,000 compounds, 0.94% hits;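 active means 50% or more with normal probe brightness, or confirmed in later tests; about a fifth of its hits are not listed in these tables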;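 further: calls also rest on retests at 20 µM and on dose response follow-up; 0% = protein and probe with vehicle and 100% = probe without protein; strong numbers were not always called active; many hits fall short of the cut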
# MT1-MMP act inh: blockers of MT1-MMP proenzyme processing, primary screen, HT1080 RFP-PRO-GFP cells, GFP/RFP fluorescence | GFP/RFP ratio fluorescence, overnight; percent of plate control window, DMSO zero | GFP/RFP ratio change, % at 20 µM | 360,000 compounds, 0.061% hits | AID 651647, 2012;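 active means GFP/RFP ratio change of at least 30% with cell ATP level not reduced by more than half and red fluorescence within 50% of control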; further: strong numbers were not always called active
#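 Assay system: RFP-PRO-GFP reporter HT1080 cells; read-out basis: GFP/RFP fluorescence ratio; benchmarks: DMSO wells and RFP-L50D-GFP cells; doses: 20 µM single dose, 1% DMSO; schedule: overnight cell settling, then overnight compound exposure, 37 °C, 5% CO2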
# Rce1 inhib: yeast Rce1p protease inhibitors, primary screen, biochemical, fluorescence, cell-free homogeneous | calls only | yeast membranes, quenched prenylated peptide cleavage fluorescence | 290,000 compounds, 0.27% hits;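 active means fall in fluorescence gain of 50% or more versus controls, with final raw signal at or below 3038400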;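 further: plate controls were neutral control wells for no effect and wells lacking membranes for full effect; tested at 10 µM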
# PABP polyA inh: PABP poly(A) RNA binding inhibitors, primary screen, biochemical, fluorescence polarization, uHTS | Polyadenylate-binding protein 1 (Homo sapiens), P11940 | inhibition, % at 35 µM | 290,000 compounds, 1% hits;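 active means 50% or more with normal probe brightness, or confirmed in later tests; about a fifth of its hits are not listed in these tables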;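 further: calls also rest on retests at 20 µM and on dose response follow-up; controls were probe without protein and protein plus probe with vehicle; some compounds called inactive have numbers as strong as hits; many hits fall short of the cut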
# Target sequence (P11940 whole entry, looked up): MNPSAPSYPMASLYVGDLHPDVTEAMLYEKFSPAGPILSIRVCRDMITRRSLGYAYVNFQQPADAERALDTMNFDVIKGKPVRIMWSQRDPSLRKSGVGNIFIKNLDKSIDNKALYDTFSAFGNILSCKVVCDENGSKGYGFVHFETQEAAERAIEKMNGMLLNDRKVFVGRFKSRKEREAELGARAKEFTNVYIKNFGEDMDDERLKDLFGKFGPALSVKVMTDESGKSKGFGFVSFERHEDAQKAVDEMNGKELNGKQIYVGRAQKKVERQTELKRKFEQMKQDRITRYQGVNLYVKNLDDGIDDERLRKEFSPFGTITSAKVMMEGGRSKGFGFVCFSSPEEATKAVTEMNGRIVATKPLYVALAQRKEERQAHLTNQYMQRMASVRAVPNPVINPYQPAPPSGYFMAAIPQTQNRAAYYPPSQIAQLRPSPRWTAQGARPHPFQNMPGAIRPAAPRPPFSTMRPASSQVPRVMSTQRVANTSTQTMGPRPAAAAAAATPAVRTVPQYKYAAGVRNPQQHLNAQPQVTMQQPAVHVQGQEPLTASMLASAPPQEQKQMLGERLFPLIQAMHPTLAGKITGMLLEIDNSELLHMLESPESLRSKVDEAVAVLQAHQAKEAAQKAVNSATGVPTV
# CSC inhib: cancer stem cell viability inhibitors, primary screen, luminescence; 300,000 compounds, 1.1% hits; cancer stem cell-like cells viability; inhibition, % at 7.5 µM;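 active means mean at 75% or more and at least half the replicates too; tested in HMLE shEcad cells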;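 further: 0% = median of negative and 100% = median of positive control wells; the first replicate is given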
# Yeast UUG start: modulators of yeast start codon fidelity, primary screen, whole organism, S. cerevisiae, single point, plate reader; S. cerevisiae UUG-firefly luciferase reporter, luminescence/redox ratio; activity score, % at 18.7 µM; 350,000 compounds, 0.13% hits; AID 602363, 2012;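 active means replicate mean at a twofold rise or more, about +100% in these data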;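 further: firefly luciferase made from a UUG start codon reports start codon fidelity; reporter light over untreated wells divided by growth signal over untreated wells; some hits fall short of that in this replicate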
# HIV Env fusion: inhibitors of HIV-1 Env-driven cell-cell fusion, primary screen, HeLa-JRFL effector, CEM21 target cells, luciferase. 360,000 compounds, 1.1% hits. inhibition, % at 12.3 µM;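 active means mean replicate inhibition score of at least 50 and every replicate individually at or above 50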;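 further: 0% = plate neutral controls and 100% = maraviroc near 300 nM; one replicate is shown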
# eIF4H inh retest: also measured in eIF4H inh; calls as there; inhibition, %; compound at 20 µM; confirmation average;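 mean of two retest wells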
# PABP polyA inh retest: second read-out of PABP polyA inh, no call of its own (marks repeat the call); inhibition, %; compound at 20 µM; confirmation repeats;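 mean of two retest wells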
# MT1-MMP act inh RFP: further read-out of MT1-MMP act inh, marked with its call; RFP signal change, %; measured here: RFP expression control read;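 0 = vehicle wells; hits needed this value within 50% of zero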
# * marks the source's active call; other numbers are inactive results; i = inactive; nt = no result given; & = joins results of further samples; [ ] = another dose, or the depositor's remark.
SMILES,eIF4H inh,MT1-MMP act inh,MT1-MMP act inh RFP,Rce1 inhib,PABP polyA inh,CSC inhib,Yeast UUG start,HIV Env fusion,others
O=C(Cc1ccccc1)N1CCC(c2ccccc2)C1 (stereo not given),-4,-1,2,i,7,-7,nt,0,
COc1cccc(CN2CCN(S(=O)(=O)c3ccc(Cl)s3)CC2)c1,-3,9,-3,i,16,8,1,-17,
Cc1sc(NC(=O)Cc2ccc3c(c2)OCO3)nc1-c1ccc2c(c1)CCN2C(=O)c1ccccc1F,-10,-6,-25,i,-4,9,-11,74*,
O=C(c1ccc(Cl)s1)N1CCN(c2nc3ccccc3s2)CC1,-7,-2,-25,i,11,-18,-14,77*,
Cc1noc(N)c1C(=O)Nc1ccc(F)cc1,2,0,0,i,-1,12,-9,nt,
CCCn1nc(C(=O)Nc2cc(C(=O)OC)ccc2C)c2ccccc2c1=O,5,2,-2,i,-10,5,-15,nt,
COc1cc(CNc2ccc(N3CCCC3)cc2)cc(Cl)c1OC,4,-4,-5,i,0,51,nt,15,
O=C(O)c1c(Cl)c(Cl)c(Cl)c(Cl)c1C(=O)N1CCCCCC1,-1,-1,4,i,16,-5,nt,4,
Cc1nc2c(C)c(C)c(C)c(C)c2nc1C,1,0,1,i,3,-2,-1,1,
Cc1nc2ccccc2c2oc(C(=O)NC3CC3)cc12,-16,0,2,i,-4,-3,5,-91,
Cc1ccccc1N(C(=O)c1ccccn1)C(C(=O)NCc1ccccc1)c1ccncc1 (stereo not given),0,2,7,i,14,30,-16,-15,
Cc1ccc(C(=O)NC(NCC2CCCO2)C(Cl)(Cl)Cl)cc1 (stereo not given),-5,-8,-9,i,7,-1,nt,0,
CCOC(=O)c1oc2ccccc2c1NC(=O)CN1CCN(C)CC1,-9,-5,1,i,-9,-9,-12,16,
Cc1ccc(NC(=O)c2ccc3nc[nH]c3c2)cc1C,-4,10,7,i,6,23,-13,-15,
O=C(NCC(=O)N1CCN(c2ccccc2O)CC1)c1ccco1,23,1,1,i,0,0,-15,-14,
C[C@@H]1CCCCO[C@@H](CN(C)Cc2ccc3c(c2)OCO3)[C@@H](C)CN([C@H](C)CO)C(=O)c2cc(N(C)C)ccc2O1,nt,8,6,nt,nt,nt,10&-1,-5&12[16.7 µM],
O=C1Cc2ccccc2N1c1ccccc1,-4,2,3,i,6,-8,1,-16,
CCc1ccccc1NC(=O)c1ccc(F)c(S(=O)(=O)N2CCC(C(N)=O)CC2)c1,-17,2,0,i,-5,1,-14,-52,
Cc1cc(C)cc(N(CC(=O)Nc2cccc(C)c2C)S(=O)(=O)c2c(C)[nH]c(=O)[nH]c2=O)c1,-7,-2,-2,i,7,-10,-12,5,
COCCN(C(=O)c1ccccc1)c1nc(-c2ccc(OC)cc2)cs1,1,-3,-8,i,-8,3,-11,-14,
O=C(/C=N/O)NCCCN1CCCCCC1,11,-1,4,i,20,-8,1,nt,
COCc1[nH][nH]c(=O)c1C=Nc1ccc(F)cc1F,-5,-3,-2,i,2,nt,-22,6,
C[N+]1(CCOC(=O)C2(c3ccccc3)CCCC2)CCCCC1,-7,-3,1,i,-13,-5,nt,20,
COc1ccc(C)cc1NC(=O)C1CCCCN1S(=O)(=O)c1ccccc1 (stereo not given),nt,-3,-7,nt,nt,3,-11,7,
Cc1ccc(C)c(COC(=O)c2cc([N+](=O)[O-])ccc2N2CCOCC2)c1,nt,-2,-3,i,nt,22,-6,38,

# (next part)
SMILES,eIF4H inh,MT1-MMP act inh,MT1-MMP act inh RFP,Rce1 inhib,PABP polyA inh,CSC inhib,Yeast UUG start,HIV Env fusion,others
Cc1nc2n[nH]c(N)c2c2c1COC(C)(C)C2,-3,-2,1,i,-5,-10,-13,nt,
Cn1c(CO)cnc1SCc1ccc([N+](=O)[O-])cc1,-6,10,11,i,-6,23,-23,nt,
COc1ccc(Cl)c2sc(N3CCN(C(=O)C4=COCCO4)CC3)nc12,nt,2,1,i,nt,-5,nt,3,
NC(=O)NC(=O)COC(=O)c1sc2ccccc2c1Cl,-1,1,3,i,-5,-5,nt,11,
OCCC1CN(Cc2ccc3cc(Cl)ccc3n2)CCN1Cc1ccsc1 (stereo not given),7,-4,-2,i,-8,13,-25,15,
Cc1ccc(S(=O)(=O)Nc2cccc3c2O[C@H](CN(C)C(=O)Nc2cccc4ccccc24)[C@H](C)CN([C@H](C)CO)C3=O)cc1,nt,-9,3,nt,nt,-10,-4,-43,
COc1ccc(C)cc1NC(=O)COC(=O)c1ccc2c(c1)OCCO2,nt,2,3,nt,nt,nt,-14,2,
O=C(Nc1nc(-c2ccccn2)cs1)C1CCCC1,3,3,4,i,-3,9,-27,-1,
COc1ccc(C(=O)NNC(=O)c2ccccc2[N+](=O)[O-])cc1Br,-2,2,1,i,-4,-4,nt,13,
Cc1cccc(C(=O)N[C@H](C(=O)NCCc2ccc(S(N)(=O)=O)cc2)C(C)C)c1,-9,2,2,i,-8,-4,-6,4,
CN(C)CCOC(=O)NCC12CC3CC(CC(C3)C1)C2,2,2,3,i,-14,-6,-17,-8,
N#CCCn1cc(C=C(C#N)C#N)c(-c2ccc(-c3ccccc3)cc2)n1,6,-4,0,i,8,38,-1,8,
COC(=O)CCC(=O)NS(=O)(=O)c1ccc(N=NN2CCOCC2)cc1,2,2,6,i,-1,nt,nt,8,
O=S(=O)(c1ccccc1C(F)(F)F)N1CCN(CC(O)COc2ccccc2F)CC1 (stereo not given),-2,0,-3,i,6,-11,10,-20,
Cc1ccc(N(CC(=O)O)C2SC(=O)NC2=O)cc1 (stereo not given),-8,-1,0,i,25,-8,-9,nt,
O=S(=O)(NCC(c1ccco1)N1CCc2ccccc2C1)c1ccc(F)cc1 (stereo not given),nt,-1,0,i,nt,18,4,9,
CC1CCN(S(=O)(=O)c2ccc(C(=O)Nc3nnc(-c4ccncc4)o3)cc2)CC1,19,-2,1,i,0,23,-37,6,
OCCN1CCN(c2ncnc3c2ncn3[C@H]2CN(Cc3ccccc3)C[C@@H](CO)O2)CC1,nt,-4,0,nt,nt,nt,-4,-1,
COc1ccc(Cc2nc3ccc(C(=O)N(C)Cc4nccs4)cc3o2)cc1OC,-4,1,-26,i,10,nt,8,5,
COc1ccccc1N1CCN(S(=O)(=O)c2c(C)[nH]c(C)c2C(=O)N2CCCCC2)CC1,-2,-4,-4,i,5,-14,15,-2,
O=C(NNC(=O)c1ccccc1[N+](=O)[O-])c1cnccn1,7,7,2,i,4,-6,-10,nt,
CCOc1ncccc1C(=O)NNC(=O)c1ccc(NS(=O)(=O)c2cccs2)cc1,nt,1,5,i,nt,-12,nt,nt,
COc1ccc(S(=O)(=O)N[C@H]2CC[C@H](CCNC(=O)c3ccccc3F)O[C@@H]2CO)cc1,nt,-3,2,nt,nt,nt,-5,-2[16.7 µM],
Clc1cccc(N/N=C/c2ccc(N3CCOCC3)cc2)c1,10,4,-2,i,0,66,-1,nt,
COC(=O)c1ccccc1NC(=S)NC(NC(=O)c1ccco1)C(Cl)(Cl)Cl (stereo not given),-16,1,2,i,-10,4,nt,nt,

# Remaining list, next part
SMILES,eIF4H inh,MT1-MMP act inh,MT1-MMP act inh RFP,Rce1 inhib,PABP polyA inh,CSC inhib,Yeast UUG start,HIV Env fusion,others
CCC(=O)N1CCCC(C)(C(=O)NS(=O)(=O)c2ccccc2Cl)C1 (stereo not given),nt,1,5,nt,nt,nt,-24,13,
c1ccc(-c2ccc(CNC3CC3)cc2)cc1,-3,2,1,i,17,-1,-10,-12,
O=C(COc1ccc2c(c1)C(=O)CC1(CCCCC1)O2)NCc1ccccn1,6,-3,-5,i,-2,6,-19,-48,
Fc1ccc(N2CCN(C3=Nc4cccc5cccc3c45)CC2)cc1,3,-9,2,i,4,-7,nt,-17,
O=C(CC(O)c1ccccc1)Nc1ccccn1 (stereo not given),nt,1,-1,nt,nt,nt,-16,-9,
CCCCOC(=O)Nc1cc(C)c(Cl)cc1OC,6,-15,-4,i,3,nt,-8,nt,
CCCC(=O)Nc1cc(C(F)(F)F)ccc1N1CCOCC1,-8,3,3,i,-7,-6,1,-1,
O=C1/C(=C/c2cccc3ccccc23)CCCc2ccccc21,-5,-8,-3,i,-11,22,-12,-89,
CC1CCc2c(sc(NC(=O)c3ccc(N4C(=O)CCC4=O)cc3)c2C(N)=O)C1 (stereo not given),nt,3,-1,nt,nt,nt,-16,-7,
c1ccc(Nc2nc3ccccc3o2)cc1,-6,9,3,i,-1,14,-24,nt,
CCCCNC(=S)N/N=C/c1cccc(OCC)c1O,-1,3,-4,i,-1,-6,-30,-5,
CC(C)c1nnc(NC(=O)CCS(=O)(=O)Cc2ccccc2)s1,-3,1,-1,i,5,-2,nt,1,
C[C@@H]1CN([C@H](C)CO)C(=O)CCCn2nncc2CO[C@H]1CN(C)C(=O)Nc1ccc(N2CCN(C)CC2)cc1,nt,5,5,nt,nt,nt,-23&-9,10,
O=C(Nc1ccc(N2CCCCC2)cc1)c1cncc(Br)c1,-2,-5,-4,i,7,-17,-13,-3,
O=C1C=C(c2cccc(Br)c2)C[C@@H](c2ccc3c(c2)OCO3)C1,nt,2,-3,nt,nt,30,0,5,
Cc1nn(CC(=O)N/N=C/c2ccc3c(c2)OCO3)c(C)c1Br,2,3,4,i,-5,-10,-14,2,
CCCC(=O)N(CCN1CCOCC1)c1nc2c(C)cccc2s1,0,-6,-1,i,11,-17,-2,nt,
CS(=O)(=O)N1CCCC(C(=O)Nc2ccc(F)cc2F)C1 (stereo not given),2,-8,-1,i,-1,13,nt,-5,
Cc1cc(C)n2nc(SCc3ccc(C#N)cc3)nc2n1,8,4,7,i,0,-8,-10,-4,
CCNc1nc(NCC)n2c(SCC(=O)Nc3ccccc3F)nnc2n1,nt,-4,-5,i,nt,10,-6,7,
CCC(=O)c1ccc(OCC(=O)OCC(=O)NCc2cccs2)cc1,nt,-3,1,i,nt,-10,-7,-12,
COc1ccccc1Cn1c(=S)[nH]c2cc(C(=O)N3CCC(C(N)=O)CC3)ccc2c1=O,-8,-2,0,i,13,-4,-4,10,
CCCN(C(=O)CSc1nnnn1C)C1CCS(=O)(=O)C1 (stereo not given),-12,1,6,i,-12,-9,nt,-1,
Cc1ccc(NC(=O)c2ccnc(C(C)(C)C)c2)cc1,10,4,-2,i,62,6,5,55,eIF4H inh retest=-3;PABP polyA inh retest=5
CCOC(=O)c1csc(NC(=O)CN2CCOCC2)n1,4,1,3,i,-1,-7,-16,9,

# Next section:
SMILES,eIF4H inh,MT1-MMP act inh,MT1-MMP act inh RFP,Rce1 inhib,PABP polyA inh,CSC inhib,Yeast UUG start,HIV Env fusion,others
O=C(O)C1C2C=CC(C3CC23)C1C(=O)O (stereo not given),7,-3,4,i,-5,nt,-8,-49,
O=C(c1cccc(C(F)(F)F)c1)C1CCCN(Cc2cccc(OCCO)c2)C1 (stereo not given),-4,2,0,i,-10,17,nt,-14,
CC1CCN(S(=O)(=O)c2cnc[nH]2)CC1,-3,0,5,i,-9,7,-17,8,
O=C(Nc1ccccc1N1CCOCC1)c1ccc(OCc2cscn2)cc1,3,-2,-1,i,2,-7,6,0,
O=C(NC(=S)NCc1ccccc1)C1CC1,-2,4,5,i,2,-11,nt,9,
COc1ccc(C2CCN(Cc3cccnc3)CC2O)cc1 (stereo not given),7,-10,0,i,18,5,-16,-8,
